# Source: PubChem
# VDR inh = Inhibitors of the vitamin D receptor (VDR): qHTS; Vitamin D3 receptor (Homo sapiens), P11473; 400,000 compounds, 0.93% hits; AID 504847, 2011; Potency, µM, for the others: max response, negative = inhibition, actives largely listed as inhibitors; VDR-SRC2-3 peptide fluorescence polarization, 2 h; active means well fitted inhibition curve with a large enough effect; inconclusive means small, poorly fitted or top-dose-only effect, or another doubt; inactive means no such curve, though single readings can be large or run the other way; further: series mostly up to about 120 µM
# Target sequence (P11473 whole entry, looked up): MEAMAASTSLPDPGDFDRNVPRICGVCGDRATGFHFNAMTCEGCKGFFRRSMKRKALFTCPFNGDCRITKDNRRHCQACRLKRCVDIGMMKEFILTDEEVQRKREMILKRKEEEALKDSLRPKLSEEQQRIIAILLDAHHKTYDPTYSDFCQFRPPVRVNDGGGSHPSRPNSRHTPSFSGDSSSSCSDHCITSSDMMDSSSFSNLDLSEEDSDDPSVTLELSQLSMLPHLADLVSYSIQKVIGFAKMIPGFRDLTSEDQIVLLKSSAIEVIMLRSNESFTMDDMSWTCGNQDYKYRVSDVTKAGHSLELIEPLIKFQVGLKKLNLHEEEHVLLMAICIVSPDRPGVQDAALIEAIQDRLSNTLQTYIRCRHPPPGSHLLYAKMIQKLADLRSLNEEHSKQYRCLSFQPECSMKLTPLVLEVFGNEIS
#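 Compounds are added to VDR with labelled SRC2-3 coactivator peptide and held 2 h at room temperature. Inhibition of the VDR–peptide interaction is then read as a change in fluorescence polarization.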
# Numbers without * were called inactive; ? = inconclusive; & = joins results of further samples. On the % scale 0 is the no-effect control and ±100 the full control effect; potency means the concentration at half of the fitted maximal effect. Some of the compounds tested. The share of hits here may be higher or lower than overall.
compound | VDR inh
CC(=NNc1ccc([N+](=O)[O-])cn1)c1ccc(N)cc1 | -10%
Cc1cc(=O)[nH]c(SCc2ccc(Cl)cc2)n1 | -4%
CCOC(=O)N1CCC(NC(=O)c2ccc3c(c2)N=C(CC)c2ccccc2S3)CC1 | -23%
CC(c1ccco1)N(C(=O)c1ccccc1NS(=O)(=O)c1cccc([N+](=O)[O-])c1)c1ccccn1 (configuration not stated) | -10%
O=C(c1ccccc1Sc1ccc([N+](=O)[O-])cc1)N1CCCCC1 | ?
Cc1ccc(CNC(=O)c2sc3nc(C)cc(C)c3c2-n2cccc2)cc1 | 4%
Cc1ccc(-c2cc(C(=O)Nc3sc4c(c3C(=O)NCc3ccco3)CCC4)[nH]n2)c(O)c1 | -6%
COc1cc2cc(C(=O)N3CCN(c4ccccc4OC)CC3)[nH]c2cc1OC | 15%
O=C(O)c1ccc(NS(=O)(=O)c2cccc(S(=O)(=O)c3ccc(Cl)c(Cl)c3)c2)cc1 | ?
O=C(/C=C/c1ccccc1)CCN1CCCCC1 | 28µM*
CC1CC(C)CN(CC(=O)c2cccs2)C1 (configuration not stated) | -6%
Cc1cc(NO)nc(-c2ccc(Br)cc2)n1 | 7%
C=C(C)CNC(=S)Nc1sc2c(c1C(=O)OCC)CC(C)(C)OC2 | ?
S=C(NCc1cccnc1)Nc1ccc(Cl)cc1 | -2%
CCCCc1nc(SCC(=O)Nc2nnc(C(C)C)s2)n[nH]1 | -6%
COc1ccc(-c2noc(CN(C(=O)c3cccs3)C(C)C)n2)cc1 | 12%
CCCn1c(=N)c(S(=O)(=O)c2ccc(F)cc2)cc2c(=O)n3cccc(C)c3nc21 | 21%
Cc1cc(S(=O)(=O)Nc2ccc(C(=O)N3CC(C)OC(C)C3)cc2)ccc1F (configuration not stated) | -6%
CC(C)C(C(=O)NCc1ccco1)N(CC1CCCO1)C(=O)CNS(=O)(=O)c1ccccc1 (configuration not stated) | 14%
COC(=O)Cc1c(C)c2cc(Cl)c(OC(=O)c3ccco3)cc2oc1=O | -4%
C=CC(c1ccccc1)C(C(=O)c1ccccc1)N(C)C (configuration not stated) | 8%
COc1cc(OC)c(N(C)S(=O)(=O)c2cccc(C(=O)OCC(=O)N(C)Cc3ccccc3)c2)cc1Cl | -4%
COC(=O)c1c(NC(=O)CSc2nc3ccccc3c(=O)n2-c2ccccc2)sc(C)c1C | ?
NC(=O)CSc1nc2c(c(=O)n1-c1ccccc1)C1(CCCCC1)Cc1ccccc1-2 | -2%
COc1ccc(C(=O)Nc2nc3ccccc3[nH]2)cc1 | 12%
CC(O)c1nc2c(c(=O)n(C)c(=O)n2C)n1C (configuration not stated) | -6%
CCC(C(=O)OCC(=O)NC1CCS(=O)(=O)C1)c1ccccc1 (configuration not stated) | -3%
O=C(Nc1nc(-c2cccs2)cs1)c1ccco1 | -13%
O=c1cc(-c2ccc(F)cc2)[nH][nH]1 | ?
CCCOc1ccc(Oc2nc(NC)nc(N3CCOCC3)n2)nn1 | 11%

# In the list so far, four contain an aryl methoxy group.
compound | VDR inh
COc1cc2cc(C(=O)N3CCN(c4ccccc4OC)CC3)[nH]c2cc1OC | 15%
COc1ccc(-c2noc(CN(C(=O)c3cccs3)C(C)C)n2)cc1 | 12%
COc1cc(OC)c(N(C)S(=O)(=O)c2cccc(C(=O)OCC(=O)N(C)Cc3ccccc3)c2)cc1Cl | -4%
COc1ccc(C(=O)Nc2nc3ccccc3[nH]2)cc1 | 12%

# Further records
compound | VDR inh
Cc1sc2nc(CSC(C)C(=O)NC3(C#N)CCCCC3)[nH]c(=O)c2c1C (configuration not stated) | ?
CC(=O)c1ccc(NC(=O)CCC(=O)OCC(F)(F)C(F)F)cc1 | -4%
Cc1ccc2nc(-c3ccncc3)[nH]c2c1 | 12%
Cc1cccc(-c2n[nH]c(=S)n2Cc2ccccc2)c1 | 0%
CCOc1ccc(C2CC(=O)N(c3cccc(F)c3)C3=C2C(=O)OC3)cc1 (configuration not stated) | -6%
COc1cccc(Cn2c(-c3nonc3NC(C)=O)nc3ccccc32)c1 | 1%
COc1ccc(CC(=O)Nc2nc(-c3ccc(OC)c(OC)c3)cs2)cc1OC | 6%
CCOc1ccc2nc(N(Cc3cccnc3)C(C)=O)sc2c1 | 2%
O=C(NCc1cc(C(F)(F)F)cc(C(F)(F)F)c1)C1CC(c2ccccc2F)=NO1 (configuration not stated) | 8%
COc1ccc(C(=O)OCC(=O)NC(=O)NCc2ccccc2)cc1[N+](=O)[O-] | -7%
COc1cccc(C2c3c(-c4ccccc4O)n[nH]c3C(=O)N2CCc2ccc(OC)c(OC)c2)c1 (configuration not stated) | -9%
Cc1cc(N2CCCC2=O)ccc1S(=O)(=O)NC1CCCCC1 | 4%
COc1ccc(OC)c(CNC(=O)C2CCCN(S(=O)(=O)N3CCC(C)CC3)C2)c1 (configuration not stated) | -16%
O=c1[nH]c(-c2cccnc2)nc2sc(-c3ccccc3)cc12 | -7%
CC(=O)N=c1c(C#N)cc2c(=O)n3ccccc3nc2n1CCCOC(C)C | 7%
Cc1ccnc(NS(=O)(=O)c2ccc(NS(=O)(=O)c3cccs3)cc2)n1 | 3%
CCN(CC)c1ccc(Nc2nc(-c3cccnc3)cs2)cc1 | ?
Cc1cc(CCC(=O)O)c(C)cc1CCC(=O)O | 6%
CCCCCOc1ccc(C(=O)OC(C)C(=O)NCc2ccco2)cc1 (configuration not stated) | -25%
C[C@@H]1O[C@@H](O[C@H]2[C@H](O)[C@@H](O)[C@H](Oc3c(-c4ccc(O)cc4)oc4cc(O)cc(O)c4c3=O)O[C@@H]2CO)[C@H](O)[C@H](O)[C@H]1O | 9%
CN(CC(=O)Nc1ccccc1Cl)C(=O)c1cc2c(s1)CCCCC2 | 4%
CCOc1cc(S(=O)(=O)n2nc(C)cc2C)ccc1Br | -6%
COC(=O)c1[nH]c2cccc(OC)c2c1NC(=O)CN1CC2(C)CC1CC(C)(C)C2 (configuration not stated) | -8%
COc1ccc(/C=C\C(=O)c2c(O)ccc3c(C)cc(=O)oc23)cc1 | -18%
Cc1ccccc1Cn1nc(C)c(NC(=O)C2c3ccccc3Oc3ccccc32)c1C | -11%
CCc1ccccc1N(CC(=O)NC1CCCCC1)C(=O)CNC(=O)c1ccco1 | -11%
CC(C)(C)NC(=O)c1ccc2c(c1)N(CC(=O)N1CCN(c3ccccc3F)CC1)C(=O)C(C)(C)O2 | 1%
CCSC(=O)CCCCCCCCCCCO | -9%
CC1(C)S[C@@H]2C(C(=O)OCc3ccccc3)NC(=O)N2C1C(=O)OCc1ccccc1 (some centres not stated) | -4%
Cc1ccc(CNC(=O)c2ccc(N3CCCC3)c(NC(=O)Nc3ccc(C)cc3)c2)cc1 | 17%
O=C(CSc1nc2ccccc2[nH]1)c1ccco1 | 3%
Cc1cn2c(=O)cc(COc3ccc(NC(=O)c4ccc(C(C)(C)C)cc4)cc3)nc2s1 | -8%
COc1ccc(Cl)cc1S(=O)(=O)N1CCC(C(=O)N2CCOCC2)CC1 | 3%
CCN(CC)CCNC(=O)c1cc2cc3ccc(OC)cc3nc2o1 | 5%
Cc1ccc(N/C(N)=N/c2nc(C(F)(F)F)cc(C(F)(F)F)n2)cc1 | 7%
COCCC1CCCCN1C(=O)c1cccc(OC2CCN(C3CCCC3)CC2)c1 (configuration not stated) | 7%
N/C(=N\c1nc2ccccc2o1)NC(=O)c1ccc(Cl)cc1 | 2%
CCN(CC)C(=O)C1CCCN(Cc2ccc3c(c2)OCO3)C1 (configuration not stated) | 11%
O=c1c(Cl)c(N2CCOCC2)cnn1-c1ncc(C(F)(F)F)cc1Cl | 11%
C[n+]1cc(-c2ccccc2)oc1-c1ccccc1 | 6%
COc1cc(-c2nnc(SCC(=O)Oc3ccccc3)o2)cc(OC)c1OC | 5%
CCc1ccccc1N(CC)C(=O)C1CCN(c2ncnc3c2nc2n3CCCCC2)CC1 | 9%&-1%
Cc1cc(NC(=O)Cc2cn3ccsc3n2)n(-c2ccccc2)n1 | 7%
CC1(C)C[C@H](O)[C@]2(CO)[C@H](O)C[C@]3(C)C(=CCC4[C@@]5(C)CC[C@H](O)C(C)(C)C5CC[C@]43C)[C@@H]2C1 (some centres not stated) | 23%
CCCCNC(=O)NC1CCCC1 | -11%
CCCCN1C(=O)C(=O)N(CC(=O)Nc2ccccc2C(=O)OCC)C1=O | -2%
COc1ccc(C(CNC(=O)c2ccc(C)cc2)N2CCOCC2)cc1 (configuration not stated) | 4%
CCc1nnc(NC(=O)CCN2C(=O)c3ccccc3S2(=O)=O)s1 | 2%
CCCCOC(=O)c1c(N)n(-c2ccc(OC)cc2OC)c2nc3ccccc3nc12 | -5%
COc1ccc(N(C)C(=O)CCS(=O)(=O)c2cccc3nsnc23)cc1 | 13%&-19%

# (list continues)
compound | VDR inh
COc1ccc(CC(=O)N/N=C(\C)CC(=O)Nc2ccc(N(C)C)cc2)cc1 | -2%
CCNc1ncc2nc(-c3ccccc3)c(=O)n(C3CC3)c2n1 | ?
C#CCOCCOCCOCCNc1nc(N2CCN(C(=O)Cn3cc(CCCCN)nn3)CC2)nc(N2CCN(C(=O)[C@H](Cc3ccc(O)cc3)n3cc(CCO)nn3)CC2)n1 | -22%
Cc1ccc(CNC(=O)COc2ccc(S(=O)(=O)N3CCOCC3)cc2)cc1 | -10%
Cc1ccc(OCc2cc(=O)n3ccsc3n2)c(NC(=O)c2ccco2)c1 | -12%
COc1ccc(CN2CCN(C(=O)Cn3c(=O)oc4cc(Cl)ccc43)CC2)c(OC)c1OC | -11%
CCOC(=O)CC[C@H](NC(=O)Cn1cnc(C(=O)Nc2ccc(C)c(C)c2)n1)C(=O)OCC | -15%
COc1ccc([N+](=O)[O-])cc1NC(=O)CSCc1cc(C)cc(C)c1 | -24%
Cc1cccc(Cn2ccc(NC(=O)c3ccc4c(c3)OCO4)n2)c1 | 13%
S=c1[nH]cc(Cc2ccccc2)s1 | -5%

# Next section, overlapping the part above by two compounds.
compound | VDR inh
Cc1cccc(Cn2ccc(NC(=O)c3ccc4c(c3)OCO4)n2)c1 | 13%
S=c1[nH]cc(Cc2ccccc2)s1 | -5%
O=C(NC(Cc1c[nH]c2ccccc12)C(=O)O)/C(=C/c1ccc(F)cc1)NC(=O)c1ccccc1 (configuration not stated) | -29%
O=C(O)CC1(CC(=O)Nc2ccc3sccc3c2)CCCCC1 | -6%
CC(=O)c1cccc(NCc2ccccc2-c2nnc(-c3ccccc3)o2)c1 | -7%
COc1ccc(C(O)CNc2ccc(C)cc2)cc1 (configuration not stated) | 24%
COc1ccc(CCNC(=O)c2c([S-])n(-c3ccc(C)cc3)c3cccc[n+]23)cc1 | -1%
NCCc1nnc(SCc2ccc(F)cc2)o1 | -16%
COc1cccc(CNC(=O)CC2C(=O)NCCN2CCCc2ccccc2)c1 (configuration not stated) | -9%
CC(=O)Nc1c2c(nn1-c1ccc(C)cc1)CS(=O)(=O)C2 | 13%
COc1cc(/C=C/C(=O)O)cc(S(=O)(=O)NCc2ccco2)c1OC | 6%
COc1ccc(C2c3c(ccc4ccccc34)Oc3ncn4nc(CO/N=C/c5ccccc5)nc4c32)cc1 (configuration not stated) | 0%
CCc1cccc(CC)c1-n1c(-c2cccnc2)n[nH]c1=S | -19%
Cc1ccc(CNS(=O)(=O)c2ccc3[nH]c4c(c3c2)CCCC4)cc1 | 11%
CCOc1ccc(C2C(C(=O)c3ccco3)=C(O)C(=O)N2CCCn2ccnc2)cc1OC (configuration not stated) | 26%
CCc1ccc(C2=CC(c3cccc(C)c3)n3c(nc4ccccc43)N2)cc1 (configuration not stated) | -1%
O=C(NCC1CCCO1)c1ccc2c(c1)ncn2-c1cccc(F)c1 (configuration not stated) | -2%
COc1ccc(C(=O)C(OC(=O)c2ccc(C)c(NC(C)=O)c2)c2ccccc2)cc1 (configuration not stated) | ?
COC(=O)/C(=C/c1ccco1)NC(=O)c1ccco1 | 9%
CS(=O)(=O)N(Cc1ccccc1Cl)c1ccc(C(=O)NCc2cccnc2)cc1 | 9%
Cc1ccc(NC(=O)CN2C(=O)/C(=C\c3cccs3)SC2=S)cc1 | 8%
O=C(CNC(=O)c1ccc(S(=O)(=O)N2CCCC2)cc1)N/N=C/c1ccccc1Cl | 4%
CC(C)CNC(=O)/C(C#N)=C1\N=C(NC(=O)c2ccco2)c2ccccc21 | -2%
CCc1ccccc1Nc1cc(C(=O)NCc2ccc(C)cc2)c2ccccc2n1 | -15%
COc1cc2c(cc1OC)C(C)N(C(=O)c1cccc([N+](=O)[O-])c1)CC2 (configuration not stated) | -1%
O=C1C[C@@H]2c3c(cccc3CN1Cc1ccc(Br)cc1)C[C@@H](O)[C@H]2O | 11%
O=C(CSc1nc2ccccc2n1CC(=O)N1CCCCC1)N1CCCCC1 | 0%
CCC1=C(OC(=O)N(CC)CC)N2C(=O)OC(=NCc3ccccc3)[C@]2(C)[C@H]2C1=CC[C@H]1C(=O)N(CC)C(=O)[C@H]12 | -15%
CC(=O)Nc1ccc(NC2CCCCC2NS(=O)(=O)c2ccccc2)cc1 (configuration not stated) | 5%
CN(C)c1nc(N)nc(CSc2nnnn2-c2cccc3ccccc23)n1 | -9%
O=C1OCC(CO)(CO)N=C1NNc1ccccc1[N+](=O)[O-] | -8%
COc1ccccc1CC(NC(C)=O)C(=O)NC1CCN(S(=O)(=O)c2ccccc2)CC1 (configuration not stated) | -2%
CC1Cc2ccccc2N1C(=O)COC(=O)Cn1cnc2ccccc2c1=O (configuration not stated) | 1%
COc1ccc(S(=O)(=O)N2CCN(C(=S)NC3CCCCC3)CC2)cc1 | 3%
